# Compound activity: PubChem, several laboratories
# Bead autofluor: flagged as autofluorescent in microsphere protease counterscreen; compound autofluorescence counterscreen, microsphere flow cytometry; active compounds read high; fluorescence intensity (no concentration beside the values); actives 3.1% (n = 360,000); AID 624483;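 active means at least 3 SD above the mean of all compounds, about 16000 in these data; inconclusive means too few beads counted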;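 further: 100 nL of 1 mM stock went into each well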
# Sa RN4220 lethal: growth inhibition of S. aureus RN4220, primary screen, OD600. 16 h. inhibition, % (concentration not given with the values). actives 0.33% (n = 330,000);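 active means z-score of -3 or lower and OD600 up to 0.18 on both plates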;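 further: plate controls were untreated cells for no effect and reference antibiotic for full effect; stock transfer was 100 nL into about 80 µL; one replicate is shown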
# Sa ugtP lethal: growth inhibition of ugtP-null S. aureus, primary screen, RN4220 ugtP deletion, OD600. growth inhibition, % (test concentration not listed). 16 h; some inactives read as strong as hits. actives 0.54% (n = 330,000). AID 1259309, 2017;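 active means z-score under -3 and OD600 up to 0.15 on both plates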;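 further: plate controls were untreated wells for no effect and antibiotic for full effect; wells of about 80 µL received 100 nL stock; the first replicate is given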
# Mtb hypoxia rep: PubChem AID 1159583. M. tuberculosis hypoxia-regulated fluorescent reporter, fluorescence. fluorescence inhibition, % (no concentration beside the values). actives 0.1% (n = 300,000);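 active means 35 to 45% if threefold the growth effect, above 45% if 1.5-fold the growth effect; inactive means the rest, general growth blockers included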;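 further: wells of about 50 µL received 100 nL stock; 0% = vehicle wells and 100% = reference inhibitor wells; whole bacteria with a GFP reporter of the hypoxia response; strong numbers were not always called active; many hits fall short of the cut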
# BJeLR lethal: MLPCN primary cell-based screen for lethality selective to Ras in HRASV12 cells | BJeLR (HRASV12) viability, CellTiter-Glo ATP luminescence, 48 h; reference of the scale not given here | inhibition, % (no concentration beside the values) | actives 0.17% (n = 300,000);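 active means replicate mean above 50%; inconclusive means above 50% but judged a plate artefact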;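 further: 50 nL library stock added to about 25 µL; numbers are from one replicate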
# PrP UTR inh: inhibition of PrP 5' UTR reporter expression. inhibition, % (concentration not given with the values). actives 0.35% (n = 340,000). AID 488862, 2010. cell-based PrP 5' UTR mRNA reporter, plate reader;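 active means every replicate at 50% or more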;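 further: 0 = median of the neutral control wells; tested in H4 reporter cells; numbers are from one replicate; inactives centre near -14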
# Mtb hypoxia rep growth: further read-out of Mtb hypoxia rep, marked with its call; growth inhibition, %; measured here: M. tuberculosis growth (absorbance);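 0% = vehicle and 100% = reference antibiotic; read after six days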
# * = called active by the depositor; ? = inconclusive; / = no result given.
SMILES,Bead autofluor,Sa RN4220 lethal,Sa ugtP lethal,Mtb hypoxia rep,Mtb hypoxia rep growth,BJeLR lethal,PrP UTR inh
O=S(=O)(c1cc(Cl)ccc1Cl)N1CCCC1,3130,-5.7,-2,19,11,-3,-23
CCCN(CC(=O)Nc1ccccc1OC)C(=O)c1nc2nc(C)ccn2n1,?,-1.0,-2,-4,1,/,-15
Cc1cccc2c1nc(-c1ccccc1)n1nnnc21,10835,3.9,-1,5,5,10,-13
NC(=O)N/N=C/c1cccc(OCc2ccc(F)cc2)c1,2131,/,/,/,/,0,-13
COc1cccc(NC(=O)c2ccc3c(c2)N(CC(=O)N2CCOCC2)C(=O)C(C)(C)O3)c1,4224,2.2,3,-1,-3,-8,-16
Cc1ccc(S(=O)(=O)N2CCC(C(=O)OCc3ccccc3)CC2)cc1C,?,-10,-4,-5,0,-6,-14
COC(=O)CCCC1=CC2=CC(=O)C(C)(OC(=O)c3cccs3)C(=O)C2=CN1Cc1ccco1 (stereo not given),3832,4.9,-9,4,3,-3,-19
COc1ccccc1N1CCN(C(=O)C(=O)c2c[nH]c3ccccc23)CC1,5601,0.8,0,-4,-13,-1,-13
CCC(=O)Nc1ccc(C2=Nn3c(nnc3C(C)C)SC2)cc1,4110,3.8,1,1,0,0,-34
COc1ccc(-c2[nH]ncc2CN2CCN(C(=O)c3cccs3)CC2)c(F)c1,4341,1.9,5,4,3,2,-16
Cc1ccc(/C=N/NC(=O)Cn2nnc(N)n2)cc1,4636,/,/,/,/,-1,-26
C/C(=N\NC(=O)CNC(=O)c1ccccc1Br)c1ccco1,3862,/,/,/,/,1,-22
CCOCCCNC(=O)C1CCCN1C(=O)Nc1ccccc1[N+](=O)[O-] (stereo not given),3813,1.8,-4,-4,-3,5,-36
CC1(C(=O)NCCN2CCOCC2)C=CCN1C(=O)c1ccccc1 (stereo not given),3665,3.9,3,11,5,2,-15
Cc1nn(-c2ccc(C(=O)O)cc2)c(=O)c2ccccc12,9012,1.1,-2,11,7,-11,-29
O=C(CN1CCN(c2cccc(Cl)c2)CC1)Nc1ccc([N+](=O)[O-])cc1C(=O)Nc1ccccc1F,2187,23,-7,5,5,-2,-12
O=c1oc2cc(Cl)ccc2n1CSc1nc2ccccc2s1,2466,85*,86,/,/,1,-57
CCCC(=O)Nc1ccc2c(c1)nc1n2CCOC1,6925,2.9,9,-2,-7,8,6
O=C(O)CC1OCC=C2CN3CCC45C6=CC(=O)C(=O)C([N+](=O)[O-])=C6NC4C1C2CC35 (stereo not given),3849,3.4,4,3,0,-6,-17
Oc1ccc(C=NNc2ncnc3c2ncn3Cc2ccccc2)cc1O,/,6.4,6,4,-2,/,/
CCOC(=O)C(NC(=O)c1cccc(Cl)c1)(OCc1ccc(F)cc1)C(F)(F)F (stereo not given),6777,4.9,14,7,10,-2,2
CC(C)(C)NCCOCCOc1ccccc1-c1ccccc1,2654,3.9,9,8,5,0,-15
CC(O)C1CNC(=O)C(=O)N1CCc1cccc(F)c1 (stereo not given),/,5.0,4,18,1,/,/
CN1CCN(c2ccc(S(=O)(=O)N3CCOCC3)cc2NC(=O)C2CCCCC2)CC1,4427,0.0,3,5,10,/,1
O=C(CCc1ccccc1)Nc1ccnn1C1CCN(C/C=C/c2ccccc2)CC1,6317,/,/,/,/,3,-11
CCN(CC(=O)NC(C)C)C(=O)C(CCSC)NC(=O)c1ccccc1OC (stereo not given),3119,0.9,6,15,1,-2,-44
Cc1cccc(C)c1OCC(=O)NN=C/C=C/c1ccco1,/,0.6,-2,11,-2,/,/
O=C(Nc1ccccc1Cl)Nc1cccnc1Cl,4657,5.1,2,4,9,3,-17
COc1cc2cc(-c3ccc(OC)c(OC)c3C)nc(N)c2cc1OC,/,-1.7,-7,7,14,13,/
CCOC(=O)Nc1nnc(CCc2ccccc2)s1,2923,5.3,-2,7,16,5,1
CC(C)Cn1c(=O)c2sccc2n2c(CCCC(=O)NC3CCN(Cc4ccccc4)CC3)nnc12,3385,-0.2,13,6,4,7,-11
Cc1ccc(N2CC(NC(=O)C(=O)c3c(C)[nH]c4ccccc34)CC2=O)cc1C (stereo not given),/,1.9,2,-2,-7,6,-3
C=Cn1cc[n+](CC(=O)c2ccc(OC)c(OC)c2)c1,3287,4.1,13,4,-4,1,-39
COc1cccc(CNC(=O)C2CCC(=O)N(CC3CCCCC3)C2)c1OC (stereo not given),?,/,/,/,/,-1,-1
O=C1C[C@@H](c2ccc(O[C@@H]3O[C@H](CO)[C@@H](O)[C@H](O)[C@H]3O)cc2)Oc2cc(O)ccc21,4190,/,/,/,/,-3,-23
COc1ccc(NS(=O)(=O)c2ccc(-c3n[nH]c(=S)n3Cc3ccccc3)cc2)cc1,2119,-2.0,20,-3,0,6,-14
O=C(COc1ccc(Cl)cc1)OCc1ccc(Cl)cc1,3497,1.8,8,16,8,/,-14
CC(=O)N(C)c1ccc(NC(=S)NC(=O)/C=C/c2ccco2)cc1,5023,1.3,47,10,9,-5,-1
COc1ccc(C)cc1NC(=O)c1nnn(CCc2ccccc2)c1N,5161,-0.4,-2,/,/,-1,-18
COC(=O)c1ccc(C=NNC(=O)CC(=O)NC(C)C)cc1,/,2.1,11,8,1,/,/
O=C(CSc1nnc(C2COc3ccccc3O2)o1)NC1CCCCC1 (stereo not given),6376,0.8,9,/,/,0,-30
COC(=O)NN=Cc1c(C)cc(C)cc1C,/,2.9,7,8,4,/,/
Cc1ccc(C(=O)Nc2nc(=O)n(C(=O)C3CC3)s2)cc1,10492,3.0,-3,7,2,4,-7
c1ccc(-c2cn(C[C@H]3CC[C@@H]([C@@H]4CC[C@H](Cn5cc(-c6ccccn6)nn5)O4)O3)nn2)nc1,3565,/,/,/,/,-3,-22
O=C(O)c1ccc(S(=O)(=O)N(Cc2cccs2)CC2CCCO2)cc1 (stereo not given),3428,1.5,-6,-6,-4,-7,-17
Cc1cc(C)c(C(=O)CSc2nc(C)cc(=O)[nH]2)c(C)c1,4178,5.5,-4,-7,5,-6,-110
CSc1nc(Sc2ccccc2Cl)c2ccccc2n1,2338,-8.9,16,7,-2,-4,-16
Cc1cccc(-n2nnnc2SCC(=O)NCCN2C(=O)CSC2=O)c1,22931*,5.7,4,0,2,-5,-20
Cc1ccc(CONC(=O)c2cccc([N+](=O)[O-])c2)cc1,8683,-0.5,2,0,-7,/,-45
O=C(CN1C(=O)CCS(=O)(=O)c2ccccc21)Nc1ccc2c(c1)OCCO2,2974,-17,-4,16,13,14,5
CCc1c(N)nc(N)nc1Nc1ccccc1Cl,3832,3.0,-1,14,7,/,3
CC1(C)Oc2ccc3ccc(=O)oc3c2/C(=N/O)C1=O,3972,2.7,11,0,0,1,-11
Cc1cccc(Nc2nnc(SCC(=O)Nc3ccc(C(=O)O)cc3)s2)c1,4362,3.8,2,-8,2,24,-4
CNC(=O)c1c(NC(=O)C2=COCCO2)sc(C)c1C,/,-0.7,3,-5,-6,10,-8
CCC(C)N(C(=O)c1csnn1)C(C(=O)NCc1ccc(F)cc1)c1ccccc1F (stereo not given),3554,-0.2,5,3,-7,-2,-21
CCCn1c(N)c(C(=O)CSc2nc(C3CC3)n(-c3ccccc3)n2)c(=O)[nH]c1=O,3446,2.7,1,8,7,/,-16
COc1ccc(NC(=O)CSc2nc(C)cs2)cc1OC,3177,12,0,-6,11,10,-6
C#CCOCCOCCOCCNc1nc(N2CCN(C(=O)[C@H](CCC(=O)O)n3cc([C@@H](N)CC(N)=O)nn3)CC2)nc(N2CCN(C(=O)[C@H](CCC(=O)O)n3cc([C@@H](N)CC(N)=O)nn3)CC2)n1,3023,2.4,10,3,8,/,-10
CCSc1ccc(C2C3C(=O)N(C)C(=O)C3[C@]3(C(=O)OC)CCCCN23)cc1 (stereo not given in full),/,8.5,-13,15,10,/,/
CCN(c1ccccc1C(=O)O)S(=O)(=O)c1ccc2[nH]c(=O)[nH]c2c1,3591,5.1,3,2,3,10,-19

# One compound at a time, from the list above. Order of screens: Bead autofluor, Sa RN4220 lethal, Sa ugtP lethal, Mtb hypoxia rep, Mtb hypoxia rep growth, BJeLR lethal, PrP UTR inh
# Shown for `Cc1cccc(Nc2nnc(SCC(=O)Nc3ccc(C(=O)O)cc3)s2)c1` = 4362, 3.8, 2, -8, 2, 24, -4
# Shown for `CCSc1ccc(C2C3C(=O)N(C)C(=O)C3[C@]3(C(=O)OC)CCCCN23)cc1` (stereo not given in full) = /, 8.5, -13, 15, 10, /, /
# Shown for `Cc1ccc(CONC(=O)c2cccc([N+](=O)[O-])c2)cc1` = 8683, -0.5, 2, 0, -7, /, -45
# Shown for `O=C(CN1C(=O)CCS(=O)(=O)c2ccccc21)Nc1ccc2c(c1)OCCO2` = 2974, -17, -4, 16, 13, 14, 5
# Shown for `CCC(C)N(C(=O)c1csnn1)C(C(=O)NCc1ccc(F)cc1)c1ccccc1F` (stereo not given) = 3554, -0.2, 5, 3, -7, -2, -21

# Continuation:
SMILES,Bead autofluor,Sa RN4220 lethal,Sa ugtP lethal,Mtb hypoxia rep,Mtb hypoxia rep growth,BJeLR lethal,PrP UTR inh
O=C(NCc1nnc(SCC(=O)N2CCCc3ccccc32)n1-c1ccccc1)c1cccc2ccccc12,2009,1.8,-1,8,2,12,8
COc1cc(Cl)c(CC(=O)c2c[nH]c3ccccc23)cc1OC,3721,0.4,-2,3,1,2,-14
O=C(CSc1nc2ccccc2o1)Nc1nc2ccccc2s1,5212,3.2,-12,0,6,1,-38
Cc1ccc(OCC(=O)NN=Cc2ccco2)cc1,/,7.7,6,10,23,/,/
COCCn1c(SCC(=O)NCC2CCCO2)nc2c([nH]c3ccccc32)c1=O (stereo not given),?,1.7,0,-3,2,3,-1
CC1CCN(C(=O)CSc2nncn2-c2ccccn2)CC1,10430,3.6,0,-5,16,-5,-10
O=C(Oc1cccc(-n2cnnn2)c1)C1CCCCC1,8717,1.7,-4,13,2,/,-4
CC1CN(C2CCCCC2)C(=O)NC1=O (stereo not given),3467,0.4,2,15,10,/,-30
O=C(NCc1ccc(Cl)cc1)c1ccc(Cn2cc(C(F)(F)F)ccc2=O)cc1,4551,-2.6,-7,-1,1,7,-15
CC(C)CNC(=S)N1CCC(NC(=O)c2ccco2)CC1,4162,2.8,5,10,10,-22,-33
CCOc1cc(C#N)c(NC(=O)c2ccco2)cc1OCC,/,2.5,1,4,0,0,-37
Cc1cccc(-c2noc(CNC(=O)c3ccco3)n2)c1,3989,-0.6,1,13,15,3,-31
COc1ccc(NC(=S)Nc2cccc(C(C)=O)c2)cc1OC,4331,1.8,1,-1,2,1,-10
CC(C)(C)C(=O)NC(=S)Nc1ccccc1C(=O)NC1CCCCC1,6367,7.2,2,12,-5,3,-6
Fc1ccc(-n2ncc3c(SCc4cccnc4)ncnc32)cc1,4753,-6.0,2,11,8,11,-101
Cc1ccc(CN2CCSc3ccc(C(=O)NCc4ccco4)cc32)cc1,2579,-7.5,-12,-5,2,-8,-16
O=C(CSc1n[nH]c(-c2ccccc2Br)n1)NCCN1C(=O)CSC1=O,2134,3.6,3,9,0,-1,-15
COC(=O)C1=C(CS(=O)(=O)c2cc(OC)ccc2OC)NC(=O)NC1c1ccc(O)c(OC)c1 (stereo not given),5935,1.2,14,3,-3,9,-18
COc1cc(SC)ccc1C(=O)N1CCN(c2ccccc2OC)CC1,4787,/,/,/,/,15,-19
C=CCn1cc(C=NNC(=O)COc2cccc3cccnc23)c2ccccc21,/,-3.6,-4,3,12,/,/
CCOC(=O)C1(Cc2ccccc2C)CCCN(C(=O)CSC)C1 (stereo not given),3718,/,/,/,/,-7,-26
O=C(CCN1CCN(c2ccccc2)CC1)c1ccc(Cl)cc1,3411,-0.8,20,4,3,-9,-12
CC(C)(C)c1ccc(OCCn2nc(C(=O)O)c3ccccc3c2=O)cc1,4052,11,-6,-4,9,-4,-25
Cn1cccc1C1CCCN1CC(=O)Nc1c(Cl)cc(Cl)cc1Cl (stereo not given),4781,4.4,1,10,14,/,-23
O=C(CSc1nc2ccccc2s1)NCCOc1ccccc1,7979,7.6,14,-3,0,0,-34
Cc1ccc(C2C(C(=O)c3sc(-c4ccccc4)nc3C)=C(O)C(=O)N2CCN(C)C)o1 (stereo not given),2828,4.7,-2,5,6,/,-11
Cc1cccc(NC(=O)c2c(F)c(F)c(F)c(F)c2F)c1,3543,-2.3,6,/,/,3,-45
